CSC inhib = cancer stem cell viability inhibitors, primary screen, luminescence; cancer stem cell-like cells viability; inhibition, % at 7.5 µM; hit rate 1.1% among 300,000; AID 2717, 2010;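 active means mean at 75% or more and at least half the replicates too; inconclusive means mean and replicates disagree; tested in HMLE shEcad cells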;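 further: 0% = median of negative and 100% = median of positive control wells; the first replicate is given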
Env fusion inh = inhibitors of HIV-1 Env-driven cell-cell fusion, primary screen, HeLa-JRFL effector, CEM21 target cells, luciferase; inhibition, % at 12.3 µM; hit rate 1.1% among 360,000;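 active means mean replicate inhibition score of at least 50 and every replicate individually at or above 50; inconclusive means only one of the two criteria met; inactive means mean below 50 and not all replicates reaching 50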;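 further: 0% = plate neutral controls and 100% = maraviroc near 300 nM; one replicate is shown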
PABP polyA inh = PABP poly(A) RNA binding inhibitors, primary screen, biochemical, fluorescence polarization, uHTS | AID 2014, 2009 | hit rate 1% among 290,000 | inhibition, % at 35 µM | Polyadenylate-binding protein 1 (Homo sapiens), P11940;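 active means 50% or more with normal probe brightness, or confirmed in later tests; inconclusive means above 50% with abnormal brightness, or retests that disagree; inactive means below 50% or failed in later tests; about a fifth of its hits are not listed in these tables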;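 further: calls also rest on retests at 20 µM and on dose response follow-up; controls were probe without protein and protein plus probe with vehicle; some compounds called inactive have numbers as strong as hits; many hits fall short of the cut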
Target sequence (P11940 whole entry, looked up): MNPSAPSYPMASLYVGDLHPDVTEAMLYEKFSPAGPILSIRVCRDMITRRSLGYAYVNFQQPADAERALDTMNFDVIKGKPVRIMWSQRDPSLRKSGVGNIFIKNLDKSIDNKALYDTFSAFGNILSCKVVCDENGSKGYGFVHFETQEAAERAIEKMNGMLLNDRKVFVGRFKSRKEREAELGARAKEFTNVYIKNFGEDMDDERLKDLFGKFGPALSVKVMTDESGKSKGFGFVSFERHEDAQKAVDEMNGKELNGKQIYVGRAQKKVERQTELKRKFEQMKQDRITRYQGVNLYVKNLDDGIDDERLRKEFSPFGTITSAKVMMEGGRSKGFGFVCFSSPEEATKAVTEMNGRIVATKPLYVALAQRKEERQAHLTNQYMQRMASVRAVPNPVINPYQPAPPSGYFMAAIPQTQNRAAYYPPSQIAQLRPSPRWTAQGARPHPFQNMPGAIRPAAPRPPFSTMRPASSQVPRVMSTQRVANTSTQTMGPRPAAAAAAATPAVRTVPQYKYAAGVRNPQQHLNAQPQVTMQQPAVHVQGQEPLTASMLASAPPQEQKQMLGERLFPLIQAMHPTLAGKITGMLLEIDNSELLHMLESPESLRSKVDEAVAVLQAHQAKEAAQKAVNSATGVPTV
Rce1 inhib = yeast Rce1p protease inhibitors, primary screen, biochemical, fluorescence, cell-free homogeneous; calls only; hit rate 0.27% among 290,000; yeast membranes, quenched prenylated peptide cleavage fluorescence;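 active means fall in fluorescence gain of 50% or more versus controls, with final raw signal at or below 3038400; inconclusive means same 50% fall but final raw signal above 3038400; inactive means fall in fluorescence gain under 50%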;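 further: plate controls were neutral control wells for no effect and wells lacking membranes for full effect; tested at 10 µM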
eIF4H FP inh = human eIF4H binding inhibitors, primary screen, translation initiation inhibitor project, biochemical, uHTS, fluorescence polarization; Eukaryotic translation initiation factor 4H (Homo sapiens), Q15056; eIF4H fluorescence polarization binding assay; inhibition, % at 35 µM; hit rate 0.94% among 290,000;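 active means 50% or more with normal probe brightness, or confirmed in later tests; inconclusive means above 50% with abnormal brightness, or retests that disagree; inactive means below 50% or failed in later tests; about a fifth of its hits are not listed in these tables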;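 further: calls also rest on retests at 20 µM and on dose response follow-up; 0% = protein and probe with vehicle and 100% = probe without protein; strong numbers were not always called active; many hits fall short of the cut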
MT1-MMP act inh = blockers of MT1-MMP proenzyme processing, primary screen, HT1080 RFP-PRO-GFP cells, GFP/RFP fluorescence; hit rate 0.061% among 360,000; GFP/RFP ratio fluorescence, overnight; percent of plate control window, DMSO zero; GFP/RFP ratio change, % at 20 µM; Matrix metalloproteinase-14 (Homo sapiens), P50281;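 active means GFP/RFP ratio change of at least 30% with cell ATP level not reduced by more than half and red fluorescence within 50% of control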; further: strong numbers were not always called active
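Compound: 20 µM single dose, 1% DMSO / System: HT1080 RFP-PRO-GFP cells / Controls: DMSO and RFP-L50D-GFP cell wells / Read-out basis: GFP/RFP fluorescence ratio / Schedule: overnight compound exposure at 37 °C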
Yeast UUG start = modulators of yeast start codon fidelity, primary screen, whole organism, S. cerevisiae, single point, plate reader | S. cerevisiae UUG-firefly luciferase reporter, luminescence/redox ratio | activity score, % at 18.7 µM | AID 602363, 2012 | hit rate 0.13% among 350,000;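 active means replicate mean at a twofold rise or more, about +100% in these data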;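 further: firefly luciferase made from a UUG start codon reports start codon fidelity; reporter light over untreated wells divided by growth signal over untreated wells; some hits fall short of that in this replicate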
eIF4H FP inh retest = further read-out of eIF4H FP inh, marked with its call; inhibition, %; compound at 20 µM; confirmation average;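 mean of two retest wells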
PABP polyA inh retest = second read-out of PABP polyA inh, no call of its own (marks repeat the call); inhibition, %; compound at 20 µM; confirmation repeats;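 mean of two retest wells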
MT1-MMP act inh RFP = also measured in MT1-MMP act inh; calls as there; RFP signal change, %; measured here: RFP expression control read;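 0 = vehicle wells; hits needed this value within 50% of zero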
The depositor's hits bear a star; i = inactive; ? = inconclusive; nt = not tested or not shown; & = joins results of further samples.

SMILES	CSC inhib	Env fusion inh	PABP polyA inh	Rce1 inhib	eIF4H FP inh	MT1-MMP act inh	MT1-MMP act inh RFP	Yeast UUG start	others
COc1ccc([C@H]2C[C@H](n3cc(COC(=O)c4ccccc4)nn3)[C@@H](O)CN2C(=O)C2CCCCC2)cc1	nt	9	nt	nt	nt	4	6	0
CCn1ccnc1C(O)c1cccc(OC)c1OC (stereo unspecified)	6	8	1	i	-9	-1	4	-2
O=C(/C=C/c1ccc(-c2ccccc2)cc1)NCc1cccnc1	14	11	6	i	3	8	-12	-23
CC(=O)N1CCN(c2ccc([N+](=O)[O-])cc2C#N)CC1	-3	-3	-6	i	5	4	2	-6
C=CCN(C(=O)CNC(=O)c1ccco1)C(C(=O)NC1CCCCC1)c1ccc(F)cc1 (stereo unspecified)	-11	-1	1	i	-6	2	4	-5
COc1ccc(CNCc2cccc(Cl)c2)cc1	-9	15	5	i	-3	-4	-1	-4
Cc1ccc(-c2nnc(Nc3ccc(CC(N)=O)cc3)c3ccccc23)cc1	nt	-6	-4	i	-3	9	1	-1
COC(=O)c1ccc(COc2cccc3c2OC(C)(C)C3)cc1	-5	21	4	i	-10	1	1	0
CC(C)Sc1nc2c(c(=O)[nH]c(=O)n2C)n1C	-9	nt	2	i	3	2	6	-5
CCCCN1CCNC1=S	-6	19	8	i	-1	-1	-4	-19

Some of these compounds in order of molecular weight, high to low.
SMILES	CSC inhib	Env fusion inh	PABP polyA inh	Rce1 inhib	eIF4H FP inh	MT1-MMP act inh	MT1-MMP act inh RFP	Yeast UUG start	others
O=C(/C=C/c1ccc(-c2ccccc2)cc1)NCc1cccnc1	14	11	6	i	3	8	-12	-23
CC(C)Sc1nc2c(c(=O)[nH]c(=O)n2C)n1C	-9	nt	2	i	3	2	6	-5
CCCCN1CCNC1=S	-6	19	8	i	-1	-1	-4	-19

(next part)
SMILES	CSC inhib	Env fusion inh	PABP polyA inh	Rce1 inhib	eIF4H FP inh	MT1-MMP act inh	MT1-MMP act inh RFP	Yeast UUG start	others
CCOc1ccc(Br)cc1C1=CC(=O)C[C@H](c2ccc(OC)cc2)C1	82*	37	nt	nt	nt	-1	-9	-13
CCCCNC(=O)CCCn1c(=O)c2ccccc2n(CC(=O)NCCC2=CCCCC2)c1=O	nt	nt	6	i	-6	4	1	-9
Cc1ccc(-c2onc(C)c2C)cc1S(=O)(=O)N1CCOc2ccccc21	34	3	8	i	-13	-8	-26	0
CC(Sc1nc2cc([N+](=O)[O-])ccc2n1-c1ccc(F)cc1)C(=O)NCc1ccc2c(c1)OCO2 (stereo unspecified)	-1	94*	-1	i	5	-2	-3	-10
COc1ccc(C(=O)OCCc2sc[n+](CC(=O)c3ccccc3)c2C)cc1	nt	-4	0	i	0	-2	0	-3
CCCOc1ccccc1/C=C1\SC(N)=NC1=O	2	4	5	i	12	-6	-7	4
COc1cccc(CNC(=O)CCC2CCCN(c3cc(C)nc(N(C)C)n3)C2)c1 (stereo unspecified)	-18	12	0	i	2	-7	1	-6
CCOC(=O)CSC1=C(C#N)C(c2ccc(C)o2)CC(=O)N1 (stereo unspecified)	58	-195	-8	i	-5	17	1	-2
O=C(O)c1cccc(Nc2nc3ccccc3nc2NS(=O)(=O)c2ccc(F)cc2)c1	-6	-3	nt	nt	nt	2	-1	-15
Cc1cccc(C)c1NC(=O)CNC(=O)c1ccc(S(=O)(=O)NCc2ccco2)cc1	-4	nt	nt	nt	nt	2	4	-15

2 compounds drawn at random from the list so far, as already listed:
SMILES	CSC inhib	Env fusion inh	PABP polyA inh	Rce1 inhib	eIF4H FP inh	MT1-MMP act inh	MT1-MMP act inh RFP	Yeast UUG start	others
O=C(/C=C/c1ccc(-c2ccccc2)cc1)NCc1cccnc1	14	11	6	i	3	8	-12	-23
CCCCN1CCNC1=S	-6	19	8	i	-1	-1	-4	-19

(continued)
SMILES	CSC inhib	Env fusion inh	PABP polyA inh	Rce1 inhib	eIF4H FP inh	MT1-MMP act inh	MT1-MMP act inh RFP	Yeast UUG start	others
COc1ccc(CCN2C(=O)CS/C2=N/NC(=O)c2ccccc2F)cc1OC	3	0	-8	i	2	-1	0	0
CC(=O)c1ccc(C(=O)N2CCCC(CNC(=O)c3ccccc3Cl)C2)cc1 (stereo unspecified)	-4	7	-2	i	-7	0	2	-11
CCN1CCN(c2oc(-c3ccco3)nc2C#N)CC1	-14	-3	14	i	3	0	5	-1
CCC(C)C(NC(=O)C1CCC(=O)N1C(=O)OCc1ccccc1)C(=O)NC(Cc1ccccc1)C(N)=O (stereo unspecified)	-8	2	-8	i	0	nt	nt	-15
O=[N+]([O-])c1cccc(OCC(O)CN2CCN(S(=O)(=O)c3cc(Cl)ccc3Cl)CC2)c1 (stereo unspecified)	13	-2	4	i	14	1	-3	-26
CSCCC(C(=O)N1CC2(C)CC1CC(C)(C)C2)N1C(=O)c2ccccc2C1=O (stereo unspecified)	5	34*	1	i	-9	-8	-7	4
COc1ccc(NC(=O)COC(=O)CCc2cc(OC)c(OC)c(OC)c2)c([N+](=O)[O-])c1	-2	-5	2	i	0	0	4	2
Cc1nn(C)c(=O)n1-c1ccc(OCc2ccccc2)cc1	nt	nt	-1	i	2	9	0	4
Cc1c(NC(=O)CC2NC(=O)NC2=O)c(=O)n(-c2ccccc2)n1C (stereo unspecified)	-6	nt	-7	i	-9	nt	nt	nt
COc1ccccc1CNC(=O)Cn1cc([N+](=O)[O-])ccc1=O	-6	1	-6	i	-5	-1	2	-3
CC(C)C(=O)Nc1cccc(C(=O)Nc2ccc(S(=O)(=O)N3CCOCC3)cc2)c1	-9	-7	-3	i	-5	1	-3	3
Nc1ccc(Sc2ccccc2CC(=O)O)cc1	nt	nt	-2	i	1	nt	nt	nt
Cc1cc2nc(/C=C/c3cccnc3)[nH]c2cc1C	nt	i	4	?	-3	27	4	-18
CC(=O)N1CCc2cc(S(=O)(=O)NCCC(=O)NCCc3ccc(C)cc3)ccc21	-3	0	-4	i	-6	-12	-9	-14
Cc1ccc(CN2C(=O)C(=O)N(CC(N)=O)C2=O)cc1	0	-29	2	i	-7	1	-2	-33
Cc1ccc(NC(=O)N2C3CCCC2CC(NC(=O)C2CC2)C3)cc1 (stereo unspecified)	-6	-2	8	i	4	1	3	-42
Cc1ccc([N+](=O)[O-])cc1NC(=O)C1CCCC1	-6	-3	-10	i	-7	-2	2	-9
CN1CCN(c2ccc(NC(=O)c3ccc4c(c3)OCCO4)cc2Cl)CC1	-5	-25	1	i	9	-11	-5	nt
CCn1cc(/C=C2/SC(=S)NC2=O)c(C)n1	8	nt	22	i	7	-1	4	nt
CCN(CC)S(=O)(=O)c1ccc(NC2CCN(Cc3ccccc3)CC2)nc1	12	1	0	i	11	4	-1	0
CCOc1ccc(NC(=O)CSc2nnc(Cc3ccccc3)c(=O)n2N)cc1	nt	7	nt	i	nt	0	-1	-3
Cc1ccc(C(=O)C(c2ccccc2)N2Cc3ccccc3C2=N)cc1 (stereo unspecified)	111*	nt	-4	i	16	-11	-14	nt
O=C(NC1CCCCC1)c1cc(S(=O)(=O)N2CCCC2)ccc1Cl	6	-2	-5	i	-6	2	-1	5
CC1C/C(=C/c2cccn2C)C(=O)/C(=C/c2cccn2C)C1 (stereo unspecified)	8	8	93*	i	58*	-230	2	-19
COc1ccc(/C(C)=N/Nc2cccc(C(=O)O)c2)cc1OC	-6	-55	-11	i	6	5	5	-10
Nc1ccc(Sc2ccccc2)nc1	-7	-20	nt	i	nt	5	1	nt
Cc1onc(-c2ccccc2)c1C(=O)Nc1nnc(N2CCCCCC2)s1	-13	-22	-1	i	-10	0	1	-20
COc1cc(/C=N/NC(=O)c2cccc(S(=O)(=O)N3CCCC3)c2)cc(OC)c1O	-10	-20	nt	i	nt	3	-4	nt
CC1CN(C(=O)Nc2ccc(Br)cc2Cl)CC(C)O1 (stereo unspecified)	-6	10	-17	i	-1	5	-3	nt
COc1ccc(N2CCN(C(=O)Cn3cnc4c3c(=O)n(C)c(=O)n4C)CC2)cc1	-4	-16	-3	i	-10	-3	3	nt
Cc1ccc(C)c(NC(=O)NCCN2CCCCC2)c1	nt	-20	0	i	9	5	7	-1
CCN(c1ccccc1)S(=O)(=O)c1ccc(C(=O)NCCCn2ccnc2)cc1	-5	-8	-8	i	4	3	-2	1
O=[N+]([O-])c1ccc(Sc2ccccc2)nc1	6	nt	-8	i	-9	0	0	-1
COc1ccc(Nc2nc(-c3cccs3)nc3ccccc23)cc1S(=O)(=O)N1CCOCC1	38	8	nt	i	nt	-20	-15	2
CC(CN1CCOCC1)OC(=O)C(C)(c1ccccc1)c1ccccc1 (stereo unspecified)	2	-9	-2	i	8	-4	0	-11
C[C@@H]1CN([C@@H](C)CO)S(=O)(=O)c2ccc(C#Cc3cccc(F)c3)cc2O[C@H]1CN(C)S(=O)(=O)c1cn(C)cn1	nt	11	nt	nt	nt	1	7	43&14&-3
CC(C)O/N=C1\C(=O)N(c2ccccc2)c2ccccc21	-6	-2	1	i	-2	-3	-3	15
Cn1c(=O)n(CC(=O)Nc2ccccc2)c2ccccc21	-1	nt	7	i	7	8	6	0
Cn1c(N)c(C(=O)COC(=O)c2cc(-c3ccco3)nc3ccccc23)c(=O)n(Cc2ccccc2)c1=O	7	nt	-9	i	70	nt	nt	nt	eIF4H FP inh retest=-9;PABP polyA inh retest=5
CCOC(=O)C1CCCN(C(=O)c2sc3nc(-c4ccc(F)cc4)cn3c2C)C1 (stereo unspecified)	-4	39	6	i	-4	7	-4	-19
CC(C)(C)c1ccc(-c2nn(CCC#N)cc2/C=N/O)cc1	0	-1	8	i	-4	-3	-3	-20
COc1ccc(NC(=O)C(Cc2ccccc2)NC(=O)c2ccco2)cc1OC (stereo unspecified)	-9	28	-3	i	0	3	-1	-14
Cc1ccc(C2=NOC(=O)/C2=C\c2ccccc2)cc1	-18	0	nt	i	nt	1	2	-1
NC(=O)c1ccc(NCC2CCCO2)c([N+](=O)[O-])c1 (stereo unspecified)	-4	-355	24	i	14	3	3	15
Cc1onc(-c2ccccc2)c1C(=O)OCCOc1ccccc1F	nt	12	4	i	-6	-1	-5	2
CCOc1ccc(NC(=O)Cc2ccccc2)c([N+](=O)[O-])c1	-3	-12	1	i	-7	0	-1	-4
Cc1cc(C(=O)CSc2nnc(N)s2)c(C)n1C1CC1	-3	-22	nt	i	nt	0	4	1
CC(C)(C)OC(=O)NCCCCCNC(=O)c1[nH]cnc1C(=O)Nc1ccon1	-6	4	nt	nt	nt	5	-2	-9
Cc1ccc(S(=O)(=O)N2CCCCC2)cc1NC(=O)CSc1nncn1-c1ccccc1	4	-147	10	i	-14	nt	nt	nt
NC(=O)/C(=C\c1ccco1)NC(=O)c1ccco1	nt	-8	nt	nt	nt	-2	1	-10
Cn1ccnc1CC(C)(O)c1ccccc1 (stereo unspecified)	nt	3	nt	nt	nt	6	3	-10
CCc1ccc(C2C(=O)c3ccccc3C2=O)cc1	9	-1	nt	i	nt	6	2	-32
Cc1ccc(Nc2nnc(SCC(=O)c3ccc(O)cc3O)s2)cc1	63	12	15	i	-7	-1	3	-10

Screening data: PubChem, several laboratories
